From PubChem BioAssay
PINK1 modulator: PINK1 expression modulation; PINK1 immunofluorescence, high-content cytometry, 24 h; Potency, µM (doses to about 76.6 µM), for inactives: at the top dose activation (PINK1 increase), hits mostly activators; hit rate 0.2% among 410,000; AID 624263; active = well fitted activation curve with a large enough effect; inconclusive = small, poorly fitted or top-dose-only effect; inactive = flat fitted curve, though single readings scatter; cell line not stated here;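 further: potency means the concentration at half of the fitted maximal effect; % of control where 0% means no effect; nearly all actives have a fitted effect of over 65% in size; a mitochondrial uncoupler was the plate control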
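Cells are seeded, rested 12 hours, then given compound at five concentrations or DMSO for 24 hours. After fixation, blocking and antibody staining, PINK1 amount and mitochondrial localization are scored; CCCP serves as control.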
Six1-Eya2 blk: Six1/Eya2 interaction inhibition | AID 651725 | hit rate 0.56% among 360,000 | AlphaScreen GST-Six1/His-Eya2 binding, biochemical; hits give low values; control for the full effect not named in the record | activity change, % (no concentration beside the values); in the data active = activity change below about -65%; inconclusive = about -30% to -65%; inactive = above about -30%; further: on the % scale 0 is the no-effect control and ±100 the full control effect; compound concentration not given in the record
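AlphaScreen with GST-Six1 and His-Eya2 (5X mix: 250 nM and 500 nM), glutathione donor and nickel acceptor beads; buffer 50 mM Tris pH 8.0, 300 mM NaCl, 1 mM TCEP; 1 h at 37 C in the dark.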
D2 PAM: positive allosteric modulators of human D2 dopamine receptor; P14416; DiscoveRx D2 beta-arrestin cells, luminescence, 90 min; 100% = 57 uM dopamine signal; potentiation, % (concentration not given with the values); hit rate 0.23% among 360,000; AID 624464; active = potentiation of 50% or more; inconclusive = 30% to 50%; inactive = 30% or less;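 further: compound concentration not given in the record; tested on top of an EC20 dose of dopamine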
Target sequence (P14416 whole entry, looked up): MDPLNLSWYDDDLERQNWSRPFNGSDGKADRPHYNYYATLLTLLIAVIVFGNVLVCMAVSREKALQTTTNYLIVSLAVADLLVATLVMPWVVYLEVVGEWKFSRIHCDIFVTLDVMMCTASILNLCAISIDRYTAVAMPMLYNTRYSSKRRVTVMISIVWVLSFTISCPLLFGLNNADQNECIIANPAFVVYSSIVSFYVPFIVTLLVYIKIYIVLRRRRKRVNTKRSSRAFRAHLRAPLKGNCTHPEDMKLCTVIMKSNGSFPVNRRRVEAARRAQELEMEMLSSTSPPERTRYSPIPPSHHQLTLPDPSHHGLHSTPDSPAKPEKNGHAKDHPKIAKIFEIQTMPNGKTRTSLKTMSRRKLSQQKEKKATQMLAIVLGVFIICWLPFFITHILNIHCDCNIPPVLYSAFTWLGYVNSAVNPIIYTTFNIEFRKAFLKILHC
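PathHunter D2 cells, attached overnight at 37 deg C, received compound in DMSO plus dopamine at EC20 (50 nM final) for 90 min at 37 deg C. Beta-arrestin recruitment was read as luminescence after 1 h with detection reagent at ambient temperature.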
D2 ag: agonists of human D2 dopamine receptor (beta-arrestin); P14416; DiscoveRx PathHunter D2 beta-arrestin, luminescence, 90 min; 100% = 57 uM dopamine signal; activation, % (test concentration not listed); hit rate 0.084% among 360,000; AID 624465; in the data active = activation above about 40%; inconclusive = about 15% to 40%; inactive = below about 15%; further: compound concentration not given in the record; the text of the record calls up to 30% inactive
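Agonist mode: compounds alone added to overnight-plated D2 PathHunter cells for 90 min at 37 C, with 57 uM final dopamine (EC100) defining full response. Beta-arrestin recruitment detected by chemiluminescent reagent, read after 1 h at ambient temperature.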
TRPML1 ag: activates the human TRPML1 channel | Q9GZU1 | TRPML1-expressing cells, Ca2+ dye fluorescence, FDSS; host cell line not named in the record; reference of the full effect not given here | activation, % (test concentration not listed) | hit rate 0.12% among 410,000 | AID 624414; in the data active = activation above about 50%; inconclusive = about 30% to 50%; inactive = below about 30%; further: 0% is about no effect; the text of the record puts the active cut at 80%
Target sequence (Q9GZU1 whole entry, looked up): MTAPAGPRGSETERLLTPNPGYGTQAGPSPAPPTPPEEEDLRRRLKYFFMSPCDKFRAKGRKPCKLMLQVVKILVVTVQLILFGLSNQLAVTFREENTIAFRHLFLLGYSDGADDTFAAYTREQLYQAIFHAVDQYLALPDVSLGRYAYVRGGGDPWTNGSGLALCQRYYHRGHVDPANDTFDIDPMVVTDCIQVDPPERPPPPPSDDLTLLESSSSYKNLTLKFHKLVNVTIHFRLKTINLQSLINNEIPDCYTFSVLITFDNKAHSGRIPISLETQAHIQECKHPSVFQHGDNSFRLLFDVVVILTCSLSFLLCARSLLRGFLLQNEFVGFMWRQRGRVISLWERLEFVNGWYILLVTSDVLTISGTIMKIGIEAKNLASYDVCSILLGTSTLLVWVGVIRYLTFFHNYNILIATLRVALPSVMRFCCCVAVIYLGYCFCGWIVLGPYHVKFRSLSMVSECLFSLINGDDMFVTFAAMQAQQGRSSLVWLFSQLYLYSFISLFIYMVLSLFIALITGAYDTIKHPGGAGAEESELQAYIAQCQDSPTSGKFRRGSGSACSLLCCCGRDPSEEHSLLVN
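TRPML1-DL cells, Tet-induced overnight (~16 h, 37 degrees C), loaded 45-90 min at room temperature with Ca8 no-wash calcium dye plus quencher. FDSS fluorescence: 10 s baseline, compound pin-transfer, 110 s agonist read, then EC80 54-4 (4uM final) and 110 s antagonist read.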
CtBP-E1A inh: inhibitors of CtBP/E1A interaction. AlphaScreen GST-E1A/His-CtBP binding, 1536-well; hits give low values; control for the full effect not named in the record. activity change, % (concentration not given with the values). AID 651724. hit rate 0.49% among 340,000; in the data active means activity change below about -65%; inconclusive means about -30% to -65%; inactive means above about -30%; further: on the % scale 0 is the no-effect control and ±100 the full control effect
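GST-E1A and His-tagged CtBP (125 nM each as 5X stock) were preincubated with pin-transferred compound for 2 h at 37 °C in the dark, then glutathione donor and nickel acceptor beads were added for 1 h before AlphaScreen reading.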
Active calls of the source: *; ? = inconclusive; · = no result given; [ ] = remark or other dose.

The first 6 records as a preview:
Order of results – PINK1 modulator | CtBP-E1A inh | TRPML1 ag | Six1-Eya2 blk | D2 ag | D2 PAM
Cc1ccccc1NC(=S)NC(NC(=O)COc1ccccc1)C(Cl)(Cl)Cl (configuration not stated)
 : 2.5% | 8 | 0.5 | 0 | 0.1 | -6
COC(=O)c1ccc(C(=O)OC)c(NC(=O)CSc2cccc[n+]2[O-])c1
 : -4.1% | -13 | 1.2 | -19 | -2.8 | -9
O=[N+]([O-])c1ccc2[nH]c(O)c(N=NC3CCS(=O)(=O)C3)c2c1 (configuration not stated)
 : -0.5% | -1 | 0.7 | -8 | -0.4 | 7
Nc1ccc2c(c1)Cc1cc(Cl)c(Cl)cc1-2
 : 0.7% | 0 | 3.0 | -11 | -2.2 | -19
O=C(COc1ccccc1C(=O)O)Nc1ccc(SC(F)F)cc1
 : 3.7% | 5 | 0.1 | 5 | -2.2 | -2
Cc1cc(C)c(S(=O)(=O)N(C)CC(=O)N2CCCC2)c(C)c1
 : -0.1% | 8 | 0.1 | 9 | -1.2 | -7

All compounds of this part (from the top)
Order of results – PINK1 modulator | CtBP-E1A inh | TRPML1 ag | Six1-Eya2 blk | D2 ag | D2 PAM
Cc1ccccc1NC(=S)NC(NC(=O)COc1ccccc1)C(Cl)(Cl)Cl (configuration not stated)
 : 2.5% | 8 | 0.5 | 0 | 0.1 | -6
COC(=O)c1ccc(C(=O)OC)c(NC(=O)CSc2cccc[n+]2[O-])c1
 : -4.1% | -13 | 1.2 | -19 | -2.8 | -9
O=[N+]([O-])c1ccc2[nH]c(O)c(N=NC3CCS(=O)(=O)C3)c2c1 (configuration not stated)
 : -0.5% | -1 | 0.7 | -8 | -0.4 | 7
Nc1ccc2c(c1)Cc1cc(Cl)c(Cl)cc1-2
 : 0.7% | 0 | 3.0 | -11 | -2.2 | -19
O=C(COc1ccccc1C(=O)O)Nc1ccc(SC(F)F)cc1
 : 3.7% | 5 | 0.1 | 5 | -2.2 | -2
Cc1cc(C)c(S(=O)(=O)N(C)CC(=O)N2CCCC2)c(C)c1
 : -0.1% | 8 | 0.1 | 9 | -1.2 | -7
COc1ccc(C2NC3=C(CCC3)C3(C#N)C4(N=C(N)C23C#N)OCCO4)cc1 (configuration not stated)
 : -1.9% | 5 | -0.2 | 3 | -2.4 | -4
N#Cc1ccc(COC(=O)c2ccc3c(c2)OCO3)cc1
 : -0.2% | 3 | 2.6 | 11 | 1.2 | -2
N=c1ccn(Cc2ccc(Cl)c(Cl)c2)cc1
 : 40µM* | 2 | 0.4 | 16 | -1.0 | -26
N=c1c2c(-c3ccccc3)c(-c3ccccc3)oc2ncn1CCCN1CCOCC1
 : -5.1% | -7 | -0.5 | -7 | -3.2 | -16
O=C(NCCc1cnn(-c2ccccc2)c1)c1cc(COc2c(F)cccc2F)on1
 : 4.5% | 1 | -0.6 | 6 | -0.1 | 5
Cc1ccc(S(=O)(=O)N2CCN(C(=O)CC(C)n3cncn3)CC2)cc1 (configuration not stated)
 : 2.0% | 9 | -0.7 | 5 | -3.5 | 4
Cc1cc(C(=O)NCc2csc(-c3ccccc3)n2)no1
 : -0.6% | -3 | -0.7 | 3 | -2.6 | 1
O=C(NCc1ccccc1Cl)NC(=O)c1csc([N+](=O)[O-])c1
 : 2.9% | 2 | -0.2 | 1 | -2.7 | -6
O=C(CSc1ncn[nH]1)Nc1c(Br)cc([N+](=O)[O-])cc1Br
 : 1.5% | 0 | -0.8 | -2 | ? | 0

Following part
Order of results – PINK1 modulator | CtBP-E1A inh | TRPML1 ag | Six1-Eya2 blk | D2 ag | D2 PAM
CCCc1cc(=O)n2[nH]c(-c3cc(OC)c(OC)c(OC)c3)nc2n1
 : 2.4% | -1 | -0.4 | -3 | -6.4 | -2
CN(c1ccccc1)S(=O)(=O)c1ccc(Cl)c(C(=O)NCc2ccccc2CN2CCCC2)c1
 : 1.9% | -8 | 3.5 | -5 | 1.4 | -4
Cc1c(Cl)cccc1NC(=S)NCc1ccco1
 : 1.4% | · | -0.9 | -6 | -3.7 | -19
O=C(CN1CCCC1)Nc1nc(-c2ccc3c(c2)CCN3C(=O)c2ccccc2F)cs1
 : -2.2% | -13 | 0.6 | -29 | 0.4 | 1
O=C(NCc1ccccc1)C1=C[C@H](c2csc3ccccc23)C[C@H](OCc2ccc(CO)cc2)O1
 : 1.8% | -7 | -0.2 | -9 | -1.0 | -9
c1csc(CNc2ccn3nc(-c4ccc(OCCN5CCOCC5)cc4)cc3n2)c1
 : 2.7% | 1 | 1.1 | -1 | 4.4 | 12
O=C(CSc1n[nH]c(=O)n1CCc1ccccc1)NC1CCCC1
 : 1.5% | 2 | -0.1 | 6 | -1.2 | -4
COc1cccc(/C=C2\CCc3ccccc3C2=O)c1
 : -1.3% | · | 1.1 | -1 | -4.5 | -5
COc1cc(C(=O)NCCC(=O)NC2CCC(C)CC2)cc(OC)c1OC (configuration not stated)
 : -1.3% | 3 | 0.0 | 0 | -2.3 | -11
CCN1C(=O)c2cccc3c(NS(=O)(=O)c4ccc(NC(C)=O)cc4)ccc1c23
 : 8.5%[38.3 µM] | -11 | 0.5 | -1 | -5.1 | -10
COc1ccc(Nc2ccc([N+](=O)[O-])cn2)cc1
 : 0.0% | 4 | 0.0 | 2 | -5.7 | -13
CN(Cc1ccccc1)C(=O)C1CCN(Cc2ccc(F)cc2)CC1
 : -1.3% | -2 | 2.5 | 2 | -1.5 | -42
CCn1c(O)c(N=NC(=O)c2cccs2)c2ccccc21
 : 5.0% | 2 | -0.8 | -6 | -6.8 | -11
COCCOc1ccc(C(F)(F)F)cc1NC(=O)COC(=O)c1c(C)noc1C
 : 3.1% | 0 | 1.4 | 19 | -2.3 | ?
Cc1cc2c(cc1C)N(C(=O)CSc1nncn1C)C(C)(C)c1ssc(=S)c1-2
 : -2.9%[38.3 µM] | ? | 0.6 | ? | -2.8 | -21

Going on with the list.
Order of results – PINK1 modulator | CtBP-E1A inh | TRPML1 ag | Six1-Eya2 blk | D2 ag | D2 PAM
COc1cc(OC)cc(C(=O)NNC(=O)c2ccc(S(=O)(=O)N3CC(C)OC(C)C3)cc2)c1 (configuration not stated)
 : 1.1% | 12 | 0.7 | 0 | -2.2 | -4
CC(=O)c1cccc(Nc2nc(-c3sc(N)nc3C)cs2)c1
 : 1.1% | -77* | -0.4 | ? | 1.1 | -8
COc1cc(C2C(C(=O)c3ccc(C)o3)=C(O)C(=O)N2c2cc(C)on2)ccc1O (configuration not stated)
 : 1.0% | 0 | 0.2 | 5 | -0.6 | -15
CCOC(=O)Cc1nc2ccccc2[nH]1
 : 4.5%[38.3 µM] | 1 | -0.4 | 1 | -0.9 | -8
Cc1ccccc1C(=O)NC(C)C1CC2CCC1C2 (configuration not stated)
 : -0.6% | -1 | -0.7 | -2 | -3.3 | 1
Clc1ccccc1OCc1nnc2n1CCCCC2
 : 1.3% | -2 | · | 5 | -0.5 | 5
C/C(=N/NC(=O)C1CCN(S(=O)(=O)c2ccc(C)cc2)CC1)c1cccc([N+](=O)[O-])c1
 : 5.8% | 3 | 0.0 | 1 | -0.6 | -18
Cc1[nH]c2ccccc2c1C(=O)COC(=O)c1cccc(S(=O)(=O)N2CCCCC2)c1
 : 3.2% | -7 | -0.2 | -8 | 7.1 | 3
Cc1cn([C@H]2C[C@H](O)[C@@H](/C=C/C(=O)NCc3ccc4c(c3)OCO4)O2)c(=O)[nH]c1=O
 : 0.4% | 1 | -0.4 | 11 | -7.8 | -5
COc1cc(/C=C2/C(=N)N3N=C(CC(=O)N4CCOCC4)SC3=NC2=O)ccc1OC(C)c1ccccc1 (configuration not stated)
 : 1.9% | -8 | 1.2 | -4 | 2.4 | -6
COc1cc(C(=O)NC(CCSC)C(=O)OCc2cc([N+](=O)[O-])cc3c2OCOC3)cc(OC)c1OC (configuration not stated)
 : 1.8% | -18 | 1.6 | -11 | -0.8 | 1
CC(C)Nc1ncnc2[nH]ncc12
 : -1.8% | 0 | 0.2 | 0 | 0.1 | -1
O=C(CNCc1ccc(Cl)cc1)Nc1ccc(C(=O)N2CCCCC2)cc1
 : -0.9% | 4 | -0.4 | -2 | -5.0 | -14
N#CC1(NC(=O)COC(=O)CSc2ccc(F)cc2)CCCCC1
 : 1.8% | 10 | -0.2 | 1 | -4.9 | -13
CC(=O)c1ccc(O)c(CC=C(C)C)c1
 : 1.2% | 4 | 0.3 | 3 | -1.1 | -1

(next part)
Order of results – PINK1 modulator | CtBP-E1A inh | TRPML1 ag | Six1-Eya2 blk | D2 ag | D2 PAM
Cc1ccccc1OC(C)C(=O)Nc1cccnc1 (configuration not stated)
 : -1.6% | -14 | 0.6 | 2 | 3.7 | -6
CC(/C=N/n1c(COc2ccccc2)n[nH]c1=S)=C\c1ccco1
 : 4.0% | -2 | 2.0 | -5 | -0.6 | -11
CC1=NN(c2ccc(C)cc2)C(=O)/C1=C\C=C\c1ccccc1
 : ? | 0 | -0.1 | 7 | -3.1 | -2
CO/N=C(\C(=O)N[C@@H]1C(=O)N2C(C(=O)O)=C(COC(N)=O)CS[C@H]12)c1ccco1
 : 0.4% | -5 | -0.5 | 7 | -0.6 | -9
Cc1ccc(S(=O)(=O)Nc2cccc3c2O[C@@H](CN(C)C(=O)Nc2ccc4c(c2)OCO4)[C@H](C)CN([C@@H](C)CO)C3=O)cc1
 : 0.2% | -1 | -0.1 | 7 | -0.6 | -9
COC(=O)c1ccccc1NC(=O)C1CC(=O)N(c2ccc(F)cc2)C1 (configuration not stated)
 : 0.3% | 2 | -0.3 | 10 | -0.4 | 2
Cc1ccc(NS(=O)(=O)c2cccc(C(=O)NCCCN3CCCC3=O)c2)cc1
 : 1.3% | 4 | 0.5 | 5 | -0.6 | 12
Cc1ccc(S(=O)(=O)N2C[C@@H]3[C@H]4CC[C@H](C4)[C@@H]3[C@@H](C)[C@H]2C#N)cc1
 : 0.6% | 4 | 12 | -1 | 3.5 | ·
CCNC(=O)CP(=O)(c1ccccc1)c1ccccc1
 : 0.1% | 0 | 0.6 | 17 | -0.2 | -20
CC1=CCC2C(=O)N(c3cccc(C(=O)NCc4ccccc4)c3)C(=O)C2C1 (configuration not stated)
 : 3.2% | 4 | -0.1 | 2 | 2.1 | -2
O=[N+]([O-])c1cccc(Nc2nc(Cl)nc(Cl)n2)c1
 : 0.4% | -13 | -0.6 | -27 | -4.2 | -3

Compound profiles, from the list above. Order of values: PINK1 modulator	CtBP-E1A inh	TRPML1 ag	Six1-Eya2 blk	D2 ag	D2 PAM
Entry for Cc1ccc(S(=O)(=O)N2CCN(C(=O)CC(C)n3cncn3)CC2)cc1 (configuration not stated) → 2.0%	9	-0.7	5	-3.5	4
Entry for Cc1ccccc1OC(C)C(=O)Nc1cccnc1 (configuration not stated) → -1.6%	-14	0.6	2	3.7	-6
Entry for COc1cc(C(=O)NC(CCSC)C(=O)OCc2cc([N+](=O)[O-])cc3c2OCOC3)cc(OC)c1OC (configuration not stated) → 1.8%	-18	1.6	-11	-0.8	1
Entry for Clc1ccccc1OCc1nnc2n1CCCCC2 → 1.3%	-2	·	5	-0.5	5
